# Screening results: PubChem, National Center for Advancing Translational Sciences (NCATS)
# HPGD inh – blocks human HPGD enzyme activity; P15428; 4.3% of 150,000 active; purified HPGD, NADH fluorescence kinetic, PGE2 substrate; Potency, µM, inactives show at the top dose activity change, negative = inhibition, actives largely listed as inhibitors; active = well fitted inhibition curve with a large enough effect (not every such curve was filed as active); inconclusive = small, poorly fitted or top-dose-only effect, or another doubt; inactive = no such curve, though single readings can be large or run the other way;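 also: top concentration of the series not given in the record; plate controls included wells without enzyme; inactives centre near -10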
# Target sequence (P15428 whole entry, looked up): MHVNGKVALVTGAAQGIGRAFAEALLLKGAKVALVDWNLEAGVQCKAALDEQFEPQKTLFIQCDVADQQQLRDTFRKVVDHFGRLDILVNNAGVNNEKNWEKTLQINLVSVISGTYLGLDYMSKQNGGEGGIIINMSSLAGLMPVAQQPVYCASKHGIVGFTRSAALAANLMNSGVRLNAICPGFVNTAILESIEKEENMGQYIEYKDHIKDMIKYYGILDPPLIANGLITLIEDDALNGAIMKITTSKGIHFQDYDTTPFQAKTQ
#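 NADH formation kinetics: reaction with 30 uM PGE2 and 1 mM NAD+ (final), 20 nM enzyme, Tris-HCl pH 8 with Tween 20, after 15 min compound preincubation at room temperature. Fluorescence change, last versus first of five reads.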
# The depositor's hits bear a star; ? = inconclusive; & = joins results of further samples. % is scaled to controls: 0 for no effect and ±100 for the full control effect; potency is read from the fitted curve at half-maximal effect.
SMILES	HPGD inh
Cc1nn2c(-c3cccnc3)ccnc2c1-c1ccccc1	-12%
CC(C)C[C@@H](CC(=O)N[C@@H](CCC(=O)O)CC(=O)O)NC(=O)[C@@H]1CNCC[C@H]1NC(=O)C[C@@H](NC(=O)C[C@H](CO)NC(=O)[C@@H]1CNCC[C@H]1N)C(C)C	-1%
O=C(O)CSCC(=O)Nc1cc(C(F)(F)F)ccc1Cl	-7%
CS(=O)(=O)c1ccc2nc(NC(=O)c3cccc(NS(=O)(=O)c4ccc(F)c(F)c4)c3)sc2c1	-18%
CCC(CC)C(=O)Nc1cc([N+](=O)[O-])ccc1Cl	-6%
C/C(CC(=O)NCCCN1CCOCC1)=N\NC(=O)COc1ccc(Cl)cc1	-1%
Cc1nc(NCCO)c2nc(-c3ccccc3)n(CC3CCN(C)CC3)c2n1	?
COc1cccc(NC(=O)N2CCN(c3cccc(C)c3C)CC2)c1	-16%
COc1ccccc1CN1CC[C@@]2(CCCN(C(=O)c3c(C)noc3C)C2)C1	-14%
O=C(NCCN1CCCCC1)c1cc(OCC(F)(F)F)ccc1OCC(F)(F)F	-14%
O=C(c1cccs1)N(C(=O)c1cccs1)c1ccccn1	-7%
NS(=O)(=O)c1cnccc1Nc1ccc(Cl)c(Cl)c1	-10%
Cc1nn(-c2ccc(F)cc2)c(Cl)c1/C=C1\C(=O)Nc2ccccc21	-4%
CCCCn1c(=O)n(C)c(=O)c2c(C(F)(F)F)cc(-c3ccncc3)nc21	?
O=C(O)c1ccccc1S(=O)(=O)c1ccccc1CO	2%
CC(C)NC(=O)CN1CCC(O)(c2ccccc2)CC1	-16%
CC(C)(C)c1ccc(S(=O)(=O)N2CCN(CCC#N)CC2)cc1	-15%
CN(C)CCNC(=O)C(C(=O)c1ccc(F)cc1)n1ccccc1=O (stereo not given)	-8%
CCOC(=O)c1[nH]c(C)c(C(=O)c2cc(F)ccc2F)c1C	?
Cc1ccnc(SCC(=O)c2ccc([N+](=O)[O-])cc2)n1	-27%
CCN(CC)c1ccc(NC(=O)c2cnc3ccccn3c2=O)c(C)c1	-3%
OC(COc1ccc(Cl)c2ccccc12)CN1CCN(c2ccccn2)CC1 (stereo not given)	-15%
O=C(c1cccs1)N1CCC2(O)CCCCC2C1c1ccc(F)cc1 (stereo not given)	-10%
COc1cccc(NC(=O)CN2C(=O)C(c3ccc(C)cc3)=NC23CCCCCC3)c1	?
COc1cc(OC)nc(NC(=S)NC(=O)c2ccccc2)n1	-16%
NC(=O)c1ccccc1NC(=S)NC(=O)c1ccc(Br)o1	?
Clc1ccc(CSc2nc3ccncc3[nH]2)cc1	-1%
COCCN(CCOC)S(=O)(=O)c1ccc(C(=O)Nc2nc(-c3ccncc3)cs2)cc1	?
N#Cc1nc(-c2ccc(OCc3ccccc3)cc2)oc1NCCCn1ccnc1	?
CCOC(=O)c1c(NC(=O)c2ccoc2C)sc(C)c1C	?
CCOc1cccc(OCCOCCN2CCCC2)c1	1%
COC(=O)C1CCN(C(=O)CSc2nnc(-c3ccncc3)o2)CC1	-19%
Cc1c(NC(=O)OCCSc2nc(N(C)C)nc(N(C)C)n2)sc(=S)n1C	-9%
NC(C(=O)O)[C@@H]1CC(Cl)=NO1 (stereo not given in full)	-25%
CCS(=O)(=O)n1nc(-c2ccccc2)cc1N	-1%
Cc1ccc(C)c(CN2C(=O)C3(OCCCO3)c3ccccc32)c1	-8%
COc1cccc(-c2nc(N3CCN(c4ccccc4)CC3)c3ccccc3n2)c1O	-22%
Cc1cc(=O)n2c3ccccc3n(CC(O)CN3CCC(C)CC3)c2c1C#N (stereo not given)	-19%
CN(C)C=O	0%&-15%
CC(Oc1ccc(Cl)cc1)C(=O)N/N=C/c1ccsc1 (stereo not given)	-8%
CC12CC3(C)CC(C)(C1)CC(NC(=O)N1CCCC1)(C2)C3	5%
O=C(O)c1ccc(O)c(N2C(=O)Nc3ccccc3N2O)c1	-7%
N[C@@H](C(=O)N[C@@H]1C(=O)N2C(C(=O)O)=C(Cl)CS[C@H]12)c1ccccc1	?
CC(C)CCOc1ccc(C2=NNC(=O)CC2)cc1	-12%
CCc1ccc(C2C(C#N)=C(N)C(C#N)(C#N)C3=CCC(C(C)(C)C)CC32)cc1 (stereo not given)	-24%
C=CCSC1=C(C#N)C(c2ccccc2)CC(=O)N1 (stereo not given)	1%
O=C(CCc1ccc(S(=O)(=O)N2CCOCC2)cc1)Nc1ccc2ccccc2c1	?
Cc1c(/C(O)=C2\C(=O)C(=O)N(CCCN(C)C)C2c2ccccc2)cnn1-c1ccccc1 (stereo not given)	20µM*
Cc1c(C(=O)O)cnc2cc(-c3ccc(Cl)cc3)nn12	?
COCCn1c(=O)c(-c2cn(C)c3ccccc23)nc2cnc(Oc3ccc(OC)cc3)nc21	-7%
CN(C)S(=O)(=O)c1ccc(S(=O)(=O)N2CCCC2)cc1	-1%
Cc1ccc(C(=O)NNC(=O)c2ccc(SCC3CCCO3)c([N+](=O)[O-])c2)cc1 (stereo not given)	-26%
COc1ccccc1CCn1c(=O)c(C)nc2cncnc21	-8%
COc1ccc(CN2C(=O)c3cccnc3C2Nc2ccc(C)cc2)cc1 (stereo not given)	-14%
COC1CC(O[C@H]2/C(C)=C/CC3CC(C[C@]4(CCC(C)C(C5CCCCC5)O4)O3)OC(=O)[C@H]3C=C(C)/C(=N/O)C4OC/C(=C\C=C\[C@@H]2C)[C@@]43O)OC(C)C1O (stereo not given in full)	-3%
CSc1nnc(-c2ccco2)n1-c1ccccc1	-10%

# (further entries)
SMILES	HPGD inh
COc1ccc(C(=O)Nc2ccc(C(=O)OCC(=O)c3ccccc3)cc2)cc1	-11%
Nc1cc(C(=O)OCC(=O)NC(c2ccccc2)c2ccccc2)ccc1Cl	-12%
CC(C)Sc1nc2c(c(=O)n(C)c(=O)n2C)n1Cc1ccc(Cl)cc1	-9%
COc1cc(CNc2ccccc2Oc2cc(=O)n(C)c(=O)n2C)cc(OC)c1OC	3%
CCCNS(=O)(=O)c1ccc2c(c1)CCCN2C(C)=O	-14%
Cc1ccc(CSCC(=O)N/N=C/c2ccc(OCC(=O)Nc3ccc(C)cc3)cc2)cc1	-9%
O=S(=O)(Nc1nc2ccccc2nc1Cl)c1ccc2ccccc2c1	?
O=C(NCC(c1ccco1)N1CCN(c2ccc(F)cc2)CC1)OCc1ccccc1 (stereo not given)	-2%
CC(C)C(NS(=O)(=O)c1cccc2nsnc12)C(=O)NCCC1=CCCCC1 (stereo not given)	1%
COC(=O)[C@@H]1C[C@@]2(O)[C@H](O)[C@H](O)[C@H](O)C[C@H]2N1C/C=C/c1ccccc1	-7%
CCCCOC(=O)c1ccc(NC(=O)c2cnccn2)cc1	16µM*
O=C(Cn1cncn1)c1ccc(F)cc1F	-5%
CCOC(=O)c1c(C)[nH]c(N=Nc2ccccc2C)c1C	-14%
O=C(O)C1C2CC3C(OC(=O)C31)C2Cl (stereo not given)	-9%
COc1ccc(Nc2ncnc3ccccc23)cc1	-4%
Cc1ccc(-c2nc(N)c3c(-c4ccc(C)cc4)nn(C(C)(C)C)c3n2)cc1	?
Cc1ccc(-c2csc3ncnc(Sc4nnc(CN5CCCCCC5=O)o4)c23)cc1	-27%
CCc1nc2c(cnn2-c2ccc(Cl)cc2)c(=O)n1-c1ccc2c(c1)OCCO2	-1%
COc1ccc(CCCc2nnc(SCC(=O)Nc3ccc(C)c(C)c3)o2)cc1	-12%
Cc1nc(NC(=O)CSc2nnnn2C)sc1C	-9%
Cc1ccc(C(C)C)c(OCC(O)CN2CC(C)OC(C)C2)c1 (stereo not given)	-12%
Cc1cccc(-n2cnc(C(=O)N/N=C\c3ccc(Br)cc3)c2)n1	-11%
CC1(C)Cc2c(sc(NC(=O)c3ccco3)c2C#N)CO1	-16%
CCC1=C(OC(=O)N(CC)CC)N2C(=O)OC(=NCCc3c[nH]c4ccccc34)[C@]2(C)[C@H]2C1=CC[C@H]1C(=O)NC(=O)[C@H]12	-7%
CCN(CC)C(=O)c1sc(NC(=O)C(Sc2ccccc2)c2ccccc2)c(C(=O)OC(C)C)c1C (stereo not given)	-21%
O=C(COC(=O)c1ccccc1SCC(=O)NC1CCCCC1)NC1CCCCC1	-21%
CC1CCN(c2ccccc2N)CC1	-6%
CCCNC(=O)N[C@@H](Cc1ccccc1)C(=O)OC	-7%
COc1ccc(Nc2oc(COc3ccccc3OC)nc2C#N)cc1	14µM*
Cc1ccc(C(=O)NCCNS(=O)(=O)c2ccccc2)cc1	-3%
O=C1c2ccccc2C(Nc2cccnc2)N1Cc1ccc2c(c1)OCO2 (stereo not given)	-23%
O=C(NCc1ccc2c(c1)OCO2)C1CC(=O)N(C2CCCC2)C1 (stereo not given)	-4%

# Reformatted with the structure last: part of the list above.
HPGD inh,mol
-21%,CCN(CC)C(=O)c1sc(NC(=O)C(Sc2ccccc2)c2ccccc2)c(C(=O)OC(C)C)c1C (stereo not given)
?,Cc1ccc(-c2nc(N)c3c(-c4ccc(C)cc4)nn(C(C)(C)C)c3n2)cc1
?,COc1cccc(NC(=O)CN2C(=O)C(c3ccc(C)cc3)=NC23CCCCCC3)c1

# The results go on.
SMILES	HPGD inh
O=C(c1ccco1)N1CCN(c2ncnc3scc(-c4cccs4)c23)CC1	-10%
O=C(/C=C/NNC(=O)c1cccc(Br)c1)c1ccccc1	-24%
O=C(NCc1ccco1)c1cnn2c(C(F)(F)F)cc(-c3ccccc3)nc12	-27%
O=C1Nc2ccccc2/C1=N\N=C\C1=C(N2CCOCC2)C(=C\c2ccccc2)/CC1	-7%
COc1ccc(NC(=S)NNC(=O)COc2ccc(Cl)cc2Cl)cc1	4.5µM*
NC(=O)c1cccnc1Nc1ccccc1Cl	0%
CC(C)(C)OC(=O)N1CCCC1C(=O)N1CCCC1C(=O)N1CCCC1C(=O)O (stereo not given)	-2%
C/C(=N\NC(=O)c1c(Br)c(C)nn1C)c1cccc(NC(=O)c2ccccc2C)c1	?
COCCn1c(CNc2ccc(F)cc2)nnc1SCC(=O)Nc1ccc(OC)cc1OC	-11%
O=C(NCCc1ccccc1)c1ccc(=O)[nH]c1	-10%
CC(C)c1ccc(C2NC(=O)NC3=C2CCc2ccccc23)cc1 (stereo not given)	?
Cc1ccc(C2C(C#N)=C(N)Oc3c2c(=O)n(C)c(=O)n3C)cc1 (stereo not given)	-4%
O=C(/C=C/c1ccc(OCc2ccccc2)c(OCc2ccccc2)c1)c1cccnc1	-25%
CCc1c(C(=O)NNC(=S)NCCc2ccccc2)csc1C	-7%
CC1(C)CC(=O)c2sc(NC(=O)Cc3cccs3)nc2C1	-24%
C=CCNC(=O)NC(=O)COn1nnc2ccc(S(=O)(=O)N(C)C)cc21	-13%
COC(=O)c1oc2ccc(Br)cc2c1NC(C)=O	-2%
CCn1cc(C(=O)NCCCN2CCC(C)CC2)c(=O)c2cc(S(=O)(=O)N3CCCC3)ccc21	-11%
COc1ccccc1NC(=O)C1=C(C)Nc2nc(-c3ccc(N(C)C)cc3)nn2C1c1ccncc1 (stereo not given)	-8%
O=C1C2CC=C(Cl)CC2C(=O)N1CCC[n+]1ccccc1 (stereo not given)	-1%
Cc1ccc(C)c(S(=O)(=O)N2CCN(CC(=O)NC(=O)NCc3ccccc3)CC2)c1	-11%
COc1cc(C2NC(=O)NC(O)(C(F)(F)F)C2C(=O)c2cccs2)ccc1O (stereo not given)	-7%
CCn1cc(C(=O)O)c(=O)c2cc(F)c(N3CCN(S(=O)(=O)c4ccc(NC(C)=O)cc4)CC3)cc21	?
O=C(NCCN1CCOCC1)c1cc(-c2ccc(F)cc2)on1	-14%
Cc1ccc(Cl)cc1N1CCN(C(=O)C2(S(=O)(=O)c3ccc(Cl)cc3)CC2)CC1	-13%
CCOC(=O)C1=C(N)OC2=C(C(=O)CC(C)(C)C2)C1C1CCCCC1 (stereo not given)	-4%
CC(C)[C@H](NC(=O)c1ccc(Cl)c([N+](=O)[O-])c1)C(=O)NCc1ccc(Cl)cc1Cl	-10%
Cc1nn(-c2ccccc2)c(N2CCCC2)c1/C=N/NC(=O)c1cc(-c2cccs2)nc2ccccc12	-7%
CN(CCOc1ccccc1)c1ccc(S(=O)(=O)N2CCCCC2)cn1	?

# In the list so far, these have an aryl thioether with sulfur outside any ring:
SMILES	HPGD inh
Cc1ccnc(SCC(=O)c2ccc([N+](=O)[O-])cc2)n1	-27%
Clc1ccc(CSc2nc3ccncc3[nH]2)cc1	-1%
COC(=O)C1CCN(C(=O)CSc2nnc(-c3ccncc3)o2)CC1	-19%
Cc1c(NC(=O)OCCSc2nc(N(C)C)nc(N(C)C)n2)sc(=S)n1C	-9%
Cc1ccc(C(=O)NNC(=O)c2ccc(SCC3CCCO3)c([N+](=O)[O-])c2)cc1 (stereo not given)	-26%
CSc1nnc(-c2ccco2)n1-c1ccccc1	-10%
CC(C)Sc1nc2c(c(=O)n(C)c(=O)n2C)n1Cc1ccc(Cl)cc1	-9%
Cc1ccc(-c2csc3ncnc(Sc4nnc(CN5CCCCCC5=O)o4)c23)cc1	-27%
COc1ccc(CCCc2nnc(SCC(=O)Nc3ccc(C)c(C)c3)o2)cc1	-12%
Cc1nc(NC(=O)CSc2nnnn2C)sc1C	-9%
CCN(CC)C(=O)c1sc(NC(=O)C(Sc2ccccc2)c2ccccc2)c(C(=O)OC(C)C)c1C (stereo not given)	-21%
O=C(COC(=O)c1ccccc1SCC(=O)NC1CCCCC1)NC1CCCCC1	-21%
COCCn1c(CNc2ccc(F)cc2)nnc1SCC(=O)Nc1ccc(OC)cc1OC	-11%

# An excerpt. The share of hits here may be higher or lower than overall.
